Assay outcomes deposited in PubChem by several laboratories.
RGS16-Gao – regulators of human RGS16-Galphao interaction. O15492+P09471. bead-based flow cytometry RGS16-Galphao binding, fluorescence; actives lie on both sides. binding response (% of control), % at 10 µM. 0.38% of 220,000 active;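 active = below 25% or above 175%, edge rows of some plates excepted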;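 also: Galphao activated by GDP with aluminum fluoride before binding; 100% = wells without compound and 0% = beads without RGS; some results beyond the cut were filed as inactive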
PKD1 inh – blocks activity of human protein kinase D1. Q15139. PKD1 kinase fluorescence polarization assay. inhibition, %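 (about 10 µM by stock and volumes)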. 0.056% of 200,000 active. AID 797;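 active = inhibition of 50% or more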;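 also: controls were vehicle for no effect and a reference inhibitor for full effect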
Target sequence (Q15139 whole entry, looked up): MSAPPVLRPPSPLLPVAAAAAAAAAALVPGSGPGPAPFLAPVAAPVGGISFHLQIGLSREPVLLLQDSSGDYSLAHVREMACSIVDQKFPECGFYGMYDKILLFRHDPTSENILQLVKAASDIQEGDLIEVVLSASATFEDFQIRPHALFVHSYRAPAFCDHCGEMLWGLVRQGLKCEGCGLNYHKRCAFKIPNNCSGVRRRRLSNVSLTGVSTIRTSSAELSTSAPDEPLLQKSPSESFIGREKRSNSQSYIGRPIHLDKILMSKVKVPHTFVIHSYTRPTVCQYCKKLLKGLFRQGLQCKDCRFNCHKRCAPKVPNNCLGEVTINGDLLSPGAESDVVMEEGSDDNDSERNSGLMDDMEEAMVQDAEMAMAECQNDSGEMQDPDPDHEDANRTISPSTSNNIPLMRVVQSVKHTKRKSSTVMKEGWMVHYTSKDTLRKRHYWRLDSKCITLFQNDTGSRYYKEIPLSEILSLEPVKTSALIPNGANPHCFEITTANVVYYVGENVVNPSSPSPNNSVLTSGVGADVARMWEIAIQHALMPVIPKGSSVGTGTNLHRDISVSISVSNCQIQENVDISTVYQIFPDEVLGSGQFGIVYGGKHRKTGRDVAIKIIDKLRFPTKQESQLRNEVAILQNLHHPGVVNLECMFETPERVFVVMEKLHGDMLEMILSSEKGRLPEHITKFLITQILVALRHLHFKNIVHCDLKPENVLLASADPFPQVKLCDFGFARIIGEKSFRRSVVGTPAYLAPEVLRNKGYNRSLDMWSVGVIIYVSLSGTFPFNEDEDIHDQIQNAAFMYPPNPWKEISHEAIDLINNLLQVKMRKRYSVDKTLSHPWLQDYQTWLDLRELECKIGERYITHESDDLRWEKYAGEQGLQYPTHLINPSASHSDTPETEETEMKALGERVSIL
GALR2 ag – activates the human galanin receptor 2 | AID 803 | GALR2-expressing cells, agonist activation read-out | O43603 | activation, %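 (tested at 5 µM)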 | 0.48% of 140,000 active;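 active = above mean plus 3 SD of all compounds, about 5% in these data, not always enough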;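 also: 0% = vehicle buffer wells and 100% = reference agonist at full effect; tested in CHO reporter cells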
Insulin prom inh – TRM-6 insulin promoter activity inhibition; inhibition, % at 2 µM; TRM-6 cells (human fetal islet line), insulin promoter-eGFP reporter, imaging; reporter expression induced with tamoxifen; AID 1273; 0.9% of 130,000 active;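 active = inhibition above the mean plus 3 SD, with well images judged a real hit on visual review, cut at about 60% in these data, passing the limit was not always enough; inconclusive = inhibition over the cutoff but images rejected on review; inactive = inhibition not above the cutoff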
HSV replic up – HSV replication enhancement; maximum fold increase; HSV replication augmentation in cells, fold increase; 0.005% of 220,000 active;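 active = peak rise of 1.5-fold or more in the series; inconclusive = self-fluorescent or not available for retest; tested in PC3 cells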;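 also: first round at 10 µM; read as green reporter fluorescence; hits show the peak of a series up to 25 µM; 1 = signal of infected wells without compound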
Insulin prom inh cell count – recorded beside Insulin prom inh, whose call it bears; normalized cell count, %; measured here: cell count, toxicity; reference of the scale not given here;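 cells exposed to compound for 48 h; stained nuclei by imaging scaled within each plate; lower means fewer cells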
HSV replic up primary fold – second read-out of HSV replic up, no call of its own (marks repeat the call); fold increase; compound at 10 µM; measured here: primary screen fold increase 10 uM; tested in PC3 cells;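 GFP signal in the first replicate; 1 = infected wells without compound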
An asterisk follows results filed as active; i = inactive; u = inconclusive; x = no result given.

Molecule	RGS16-Gao	PKD1 inh	GALR2 ag	Insulin prom inh	Insulin prom inh cell count	HSV replic up	HSV replic up primary fold
CC(=O)c1ccccc1NC(=O)COC(=O)CCCN1C(=O)c2cccc3cccc(c23)C1=O	113	10	-0.1	-17	105	i	0.94
Cc1ccccc1S(=O)c1ccccc1C(=O)O (stereo not drawn)	103	x	x	x	x	i	0.71
Cc1ccc(C(=O)NCCOC23CC4CC(CC(C4)C2)C3)cc1	98	5	-1.4	-21	80	i	0.95
CCOc1ccccc1C(=O)N[C@H](C(=O)Nc1nc2c(s1)CCCC2)C(C)C	105	-7	-0.8	19	136	i	0.76
c1ccc(Cn2nnc3c(N4CCOCC4)ncnc32)cc1	86	-10	-2.0	x	x	i	0.93
COC(=O)c1c(NC(C)=O)csc1C	100	x	x	x	x	i	0.96
CCOC(=O)C1=NN(c2cccc(C)c2)C2(S1)SC(C(C)=O)=C(C)N2c1ccccc1 (stereo not drawn)	x	-5	1.4	32	84	i	0.91
CCOC(=O)c1oc2cccc(O)c2c1CN(Cc1ccccc1)C(C)=O	107	3	-0.6	x	x	i	0.75
Cc1cc(C)nc(SCC(=O)O)n1	106	-8	-0.5	-4	60	i	0.95
O=C1c2ccccc2C(=O)N1CC1c2ccccc2CCN1C(=O)CN1CCOCC1 (stereo not drawn)	105	-5	x	-94	94	i	1
Cc1ccccc1OCc1nnc(SCc2nc3ccccc3c(=O)[nH]2)n1C	112	-6	x	18	121	i	0.97
CCC(=O)Nc1cc(C(=O)OCc2ccc(C(=O)Oc3ccccc3)cc2)ccc1C	95	-17	-0.2	-11	166	i	0.94

Quoted from the listing.
PKD1 inh with Cc1cc(C)nc(SCC(=O)O)n1 → -8
RGS16-Gao with CCOC(=O)c1oc2cccc(O)c2c1CN(Cc1ccccc1)C(C)=O → 107
RGS16-Gao with COC(=O)c1c(NC(C)=O)csc1C → 100
GALR2 ag with CCOc1ccccc1C(=O)N[C@H](C(=O)Nc1nc2c(s1)CCCC2)C(C)C → -0.8
Insulin prom inh with CCOC(=O)C1=NN(c2cccc(C)c2)C2(S1)SC(C(C)=O)=C(C)N2c1ccccc1 (stereo not drawn) → 32

Given field by field: part of the list above
> Cc1ccc(C(=O)NCCOC23CC4CC(CC(C4)C2)C3)cc1
  RGS16-Gao: 98 | PKD1 inh: 5 | GALR2 ag: -1.4 | Insulin prom inh: -21 | Insulin prom inh cell count: 80 | HSV replic up: i | HSV replic up primary fold: 0.95

> COC(=O)c1c(NC(C)=O)csc1C
  RGS16-Gao: 100 | PKD1 inh: x | GALR2 ag: x | Insulin prom inh: x | Insulin prom inh cell count: x | HSV replic up: i | HSV replic up primary fold: 0.96

> Cc1ccccc1S(=O)c1ccccc1C(=O)O (stereo not drawn)
  RGS16-Gao: 103 | PKD1 inh: x | GALR2 ag: x | Insulin prom inh: x | Insulin prom inh cell count: x | HSV replic up: i | HSV replic up primary fold: 0.71

> O=C1c2ccccc2C(=O)N1CC1c2ccccc2CCN1C(=O)CN1CCOCC1 (stereo not drawn)
  RGS16-Gao: 105 | PKD1 inh: -5 | GALR2 ag: x | Insulin prom inh: -94 | Insulin prom inh cell count: 94 | HSV replic up: i | HSV replic up primary fold: 1

(next part)
Molecule	RGS16-Gao	PKD1 inh	GALR2 ag	Insulin prom inh	Insulin prom inh cell count	HSV replic up	HSV replic up primary fold
Cc1ccc(Cn2nnc3c(=O)[nH]c(C4CCN(S(=O)(=O)c5ccc(C)cc5)CC4)nc32)cc1	189	1	-0.3	0	45	i	0.89
O=C(CN(C(=O)CSc1nc2ccccc2o1)c1cccc(F)c1)NC1CCCCC1	121	-11	-2.0	14	125	i	1
CCOC(=O)C1CCCN(CCC(=O)Nc2cccc(F)c2)C1 (stereo not drawn)	98	-2	-1.4	9	127	i	1.2
COc1cc2cc3c(N)c(C(=O)Nc4sc(C)c(C)c4C#N)sc3nc2cc1OC	84	-6	-1.0	-30	96	i	1
CCC1Oc2ccccc2N(Cc2ccccc2C)C1=O (stereo not drawn)	115	0	-0.1	-55	80	i	1.1
O=C(NC(=S)Nc1ccccc1N1CCCC1)c1ccc(F)cc1	101	6	x	x	x	i	1
OCCC1CN(CCCc2ccccc2)CCN1Cc1ccccc1 (stereo not drawn)	101	x	x	x	x	i	0.96
O=C(NNS(=O)(=O)c1ccccc1)c1cnn(-c2ccccc2)c1-n1cccc1	100	6	-0.1	-25	42	i	0.86
Cn1c(SCC(=O)N2CCCCCC2)nc2c([nH]c3ccccc32)c1=O	101	2	-2.1	-7	115	i	0.99
CCC(=O)Nc1nnc(CSCc2ccc(F)cc2)s1	116	-4	-1.4	-8	81	i	0.85
O=c1[nH][nH]cc1C=Nc1ccc(Cl)cc1	102	-14	x	0	53	i	1.1
Cc1nc(COC(=O)c2cc(O)c3ccccc3c2O)cs1	84	-3	x	x	x	i	1.1
CN(C)CCCC1(O)c2ccccc2C=Cc2ccccc21	99	-1	-1.9	-145	45	i	0.74
CC(C)(C)NC(=O)c1ccncc1	100	8	-0.4	-10	72	i	0.97
CCOc1cc2c3c(c1)C1(C(=O)N3C(C)(C)C=C2C)C(C#N)=C(N)Oc2cc(O)ccc21 (stereo not drawn)	102	-2	-2.4	39	84	i	0.71
O=c1c2cnn(-c3ccccc3)c2ncn1Cc1cccnc1	102	0	-1.6	-21	83	i	0.92
Cc1cccc(Cc2c(C)nc3c(C(=O)N4CCN(Cc5ccc6c(c5)OCO6)CC4)cnn3c2C)c1	112	-6	0.4	30	136	i	0.96
CCC(C)NCCOCCOc1cc(C)c(Cl)c(C)c1 (stereo not drawn)	100	-4	x	-71	110	i	0.93
CC1Cc2ccccc2N1C(=O)NC1CC(=O)N(c2ccc3c(c2)OCCO3)C1 (stereo not drawn)	103	-9	x	22	117	i	0.9
CCOC(=O)c1cncc(O)c1	94	x	x	x	x	i	1.1
Cn1c(=O)c2c(ncn2CC(=O)Nc2nc(-c3ccc(F)c(F)c3)cs2)n(C)c1=O	101	x	x	x	x	i	1
C=CCNC(=O)c1onc(CSc2ccc(Cl)cc2)c1C(=O)NCC=C	102	x	x	x	x	i	0.83
Cc1cc(=O)[nH]c2ccccc12	101	-3	-2.0	45	77	i	0.9
O=[N+]([O-])c1ccccc1/C=N/n1c(C2CCCCC2)n[nH]c1=S	98	18	0.3	x	x	i	0.91
CCOc1c(Cl)cc(CNCc2ccncc2)cc1OC	102	3	x	x	x	i	1.1
Cc1ccc2cc(C)c3nnc(SCC(=O)Nc4nc5c(s4)CCCC5)n3c2c1C	105	1	-3.1	30	93	i	0.71
CC(C)N(C(=S)NCc1ccccc1)C(C)C	136	-3	x	40	91	i	0.96
Cc1cc(-c2nnc(SCC(=O)Nc3ccccc3)n2C)no1	97	x	x	x	x	i	1
O=C(Nc1ccc(Cl)cc1)Nc1ccc(N2CCCC2)c(S(=O)(=O)Nc2ccccc2Cl)c1	113	-7	-1.0	39	53	i	0.75
COc1cc(O)cc2cc3c(c(O)c12)C(=O)CC(C)(O)O3 (stereo not drawn)	97	x	x	x	x	i	1.2
CC(C)Cc1nc(SCC(=O)Nc2nnc(CC(C)C)s2)n[nH]1	97	x	x	x	x	i	0.94
Cc1ccc(N2CC(O)=C(c3ccccc3)C2=N)cc1	111	1	x	73*	21*	i	1.1
Nc1ccc(C(=O)c2cccs2)cn1	100	x	x	x	x	i	1
O=C(Nc1ccc(-c2cn3ccsc3n2)cc1)C1CC1	60	-10	-2.3	-3	106	i	0.95
Cc1nnc(SCC(=O)Nn2cnnc2)s1	97	-22	-1.2	-2	155	i	0.88
COc1ccc(C2NC(=S)NC3=C2CCc2ccccc23)cc1OC (stereo not drawn)	106	-6	-1.8	x	x	i	0.82
Cc1ccc(NC(=O)N(Cc2ccc3c(c2)OCO3)Cc2cc3cc4c(cc3[nH]c2=O)OCCO4)cc1	106	1	-0.2	-15	93	u	x
CCOc1ccc(CNC(=O)C2CCC(=O)N2C2CCCC2)cc1OC (stereo not drawn)	108	0	-3.8	-22	100	i	0.52
O=C(CCn1nnc2ccccc21)N/N=C\Cc1ccccc1	100	4	x	-7	102	i	0.93
CCC(C)[C@H](NC(=O)NCc1ccc(Cl)cc1)C(=O)O (stereo partly drawn)	95	x	x	x	x	i	0.91
O=C(Nc1nc(-c2ccc(-c3ccccc3)cc2)cs1)C1CCCO1 (stereo not drawn)	97	8	-1.1	15	86	i	0.82
CCCCNC(=O)c1ccc2nc(-c3ccco3)c(-c3ccco3)nc2c1	93	-4	-0.7	x	x	i	0.89
C=CCn1c(-c2ccoc2C)n[nH]c1=S	99	-9	-4.9	0	78	i	1
COc1ccc(C(=O)Nc2ccccc2C(=O)N/N=C/c2ccco2)cc1	91	5	-1.0	25	110	i	0.99
O=[N+]([O-])c1ccc(N2CCN(c3ccc(Cl)nn3)CC2)cc1NC1CC1	x	6	-2.3	-276	50	i	0.93
COc1cccc(CNC(=O)Cc2nc3nc(C)cc(C)n3n2)c1	153	-18	0.5	x	x	i	1.1
NC(=O)C1CCN(C(=O)CN2C(=O)c3ccccc3S2(=O)=O)CC1	99	6	-1.1	19	95	i	1
COCCCNC(=O)COc1ccc(-c2nccc(-c3ccccn3)n2)cc1	104	-7	-3.3	7	120	i	0.9

Reprinted from the part before: 2 entries, followed by the next part.
Molecule	RGS16-Gao	PKD1 inh	GALR2 ag	Insulin prom inh	Insulin prom inh cell count	HSV replic up	HSV replic up primary fold
NC(=O)C1CCN(C(=O)CN2C(=O)c3ccccc3S2(=O)=O)CC1	99	6	-1.1	19	95	i	1
COCCCNC(=O)COc1ccc(-c2nccc(-c3ccccn3)n2)cc1	104	-7	-3.3	7	120	i	0.9
c1cncc(CNC2CCCc3ccccc32)c1 (stereo not drawn)	105	9	-2.1	x	x	i	0.75
Cc1nc(SCC(=O)NC2CCCCC2)[nH]c(=O)c1C	101	x	x	x	x	i	1.1
C/C(=N\N1CCN(Cc2ccc(Cl)cc2)CC1)c1ccc(F)cc1	96	x	x	x	x	i	0.92
COc1ccc(Cl)cc1-n1c(C)cc(C(=O)O)c1C	99	-8	0.0	-48	137	i	0.87
Cc1ccc(/C=N/Nc2nc(Cl)c(Cl)cc2Cl)s1	102	-4	-0.5	30	190	i	1
CCOC(=O)C1(Cc2ccccc2Cl)CCN(Cc2csc(C(C)=O)c2)CC1	101	0	x	10	115	i	0.87
O=C(NCc1ccco1)C1CC(=O)N(c2ccc(Cl)cc2)C1 (stereo not drawn)	105	-3	x	-58	100	i	1
CC(=O)N1CCC(=NNS(=O)(=O)c2ccc(C)c([N+](=O)[O-])c2)CC1	101	3	-1.8	69	68	i	0.86
CCn1c(SCC(=O)N2CCc3ccccc32)nnc1-c1c[nH]c2ccccc12	111	-4	0.3	19	87	i	0.83
COc1ccccc1S(=O)(=O)Cc1ccc(C(=O)N2CCOCC2)o1	96	-18	-1.9	x	x	i	0.91
Cc1noc(NC(=O)c2cccc(Cl)c2Cl)c1C#N	93	4	x	-40	116	i	1
CC1CC(C)CN(S(=O)(=O)c2cccc3cccnc23)C1 (stereo not drawn)	116	-21	x	x	x	i	0.94
COc1ccc(/C=C2/C(=O)ON=C2c2ccccc2)cc1OC	95	-4	-1.2	-19	72	i	1
O=C(CCc1ccccc1)NNC(=O)c1ccccc1F	101	-4	x	-12	124	i	0.98
C[C@H](NC(=O)c1nc[nH]c1C(=O)NCc1ccc(CNC(=O)OC(C)(C)C)cc1)C(=O)OC(C)(C)C	110	-3	x	x	x	i	0.94
CCc1nc2ccccc2c(=O)n1NC(=O)c1c(O)c2cccc3c2n(c1=O)CCC3	-300	-14	-4.4	-26	92	i	0.97
O=S(=O)(c1cc(-c2nnc(-c3ccc(Br)cc3)o2)ccc1Br)N1CCCCCC1	108	3	0.3	30	97	i	0.81
Cn1c(=O)nc2n(Cc3ccccc3)c3ccccc3cc-2c1=O	103	-2	0.3	x	x	i	0.85
Nc1ccc(-c2nc3cc([N+](=O)[O-])ccc3o2)cc1	97	x	x	x	x	i	0.88
CCOc1ccc2oc(-c3ccccc3)c(C(=O)O)c2c1	59	-16	-1.6	-193	40	i	0.95
CCc1cccc(C)c1NC(=O)COC(=O)CNS(=O)(=O)/C=C/c1ccccc1	130	-8	-0.8	21	54	i	0.92
Cc1cc(Br)ccc1OCCN1CC(C)OC(C)C1 (stereo not drawn)	101	-8	x	x	x	i	1
COc1ccc(-c2cc(C(=O)NCCCn3ccnc3)no2)cc1OC	107	-9	-2.3	-58	91	i	1.2
NNC(=S)Nc1ccc(S(=O)(=O)N2CCOCC2)cc1	100	x	x	x	x	i	0.77
Cc1nn(C)c(C)c1S(=O)(=O)N1CCCC(C(=O)N2CCN(c3ccccc3)CC2)C1 (stereo not drawn)	105	2	-1.9	x	x	x	x

Random draw from the library (roughly 1.3% active in at least one column).
